Rce1 inhib: inhibitors of yeast Ras-converting enzyme; Q03530; yeast membranes, quenched prenylated peptide cleavage fluorescence; calls only; 290,000 compounds, 0.27% hits; AID 2563;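 active = fall in fluorescence gain of 50% or more versus controls, with final raw signal at or below 3038400; inconclusive = same 50% fall but final raw signal above 3038400; inactive = fall in fluorescence gain under 50%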;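 also: plate controls were neutral control wells for no effect and wells lacking membranes for full effect; tested at 10 µM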
Target sequence (Q03530 whole entry, looked up): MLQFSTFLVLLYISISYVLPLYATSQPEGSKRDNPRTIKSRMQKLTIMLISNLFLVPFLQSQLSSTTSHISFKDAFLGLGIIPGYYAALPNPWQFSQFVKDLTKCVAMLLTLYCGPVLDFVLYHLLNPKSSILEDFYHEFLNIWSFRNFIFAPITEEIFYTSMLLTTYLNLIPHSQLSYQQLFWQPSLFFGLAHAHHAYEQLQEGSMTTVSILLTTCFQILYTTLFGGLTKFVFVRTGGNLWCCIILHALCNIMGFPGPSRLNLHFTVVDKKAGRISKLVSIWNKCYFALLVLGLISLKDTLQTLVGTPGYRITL
HIV Env fusion: inhibitors of HIV Env-mediated cell fusion; HeLa-JRFL Env/CEM21 cell fusion, luciferase; 360,000 compounds, 1.1% hits; inhibition, % at 12.3 µM;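 active = mean replicate inhibition score of at least 50 and every replicate individually at or above 50; inconclusive = only one of the two criteria met; inactive = mean below 50 and not all replicates reaching 50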;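 also: 0% = plate neutral controls and 100% = maraviroc near 300 nM; one replicate is shown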
eIF4H FP inh: inhibitors of RNA binding by human eIF4H. eIF4H fluorescence polarization binding assay. inhibition, % at 35 µM. 290,000 compounds, 0.94% hits. AID 2012;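 active = 50% or more with normal probe brightness, or confirmed in later tests; inconclusive = above 50% with abnormal brightness, or retests that disagree; inactive = below 50% or failed in later tests; about a fifth of its hits are not listed in these tables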;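 also: calls also rest on retests at 20 µM and on dose response follow-up; 0% = protein and probe with vehicle and 100% = probe without protein; strong numbers were not always called active; many hits fall short of the cut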
CSC inhib: cancer stem cell inhibition. cancer stem cell-like cells viability, luminescence. inhibition, % at 7.5 µM. 300,000 compounds, 1.1% hits. AID 2717;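 active = mean at 75% or more and at least half the replicates too; inconclusive = mean and replicates disagree; tested in HMLE shEcad cells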;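 also: 0% = median of negative and 100% = median of positive control wells; the first replicate is given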
PABP polyA inh: PABP-poly(A) binding inhibition. PABP-poly(A) RNA binding, fluorescence polarization. inhibition, % at 35 µM. 290,000 compounds, 1% hits. AID 2014;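 active = 50% or more with normal probe brightness, or confirmed in later tests; inconclusive = above 50% with abnormal brightness, or retests that disagree; inactive = below 50% or failed in later tests; about a fifth of its hits are not listed in these tables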;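 also: calls also rest on retests at 20 µM and on dose response follow-up; controls were probe without protein and protein plus probe with vehicle; some compounds called inactive have numbers as strong as hits; many hits fall short of the cut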
UUG fidelity: yeast start codon fidelity modulation; S. cerevisiae UUG-firefly luciferase reporter, luminescence/redox ratio; activity score, % at 18.7 µM; 350,000 compounds, 0.13% hits; AID 602363;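 active = replicate mean at a twofold rise or more, about +100% in these data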;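 also: firefly luciferase made from a UUG start codon reports start codon fidelity; reporter light over untreated wells divided by growth signal over untreated wells; some hits fall short of that in this replicate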
MT1-MMP act inh: blocks activation of human MT1-MMP; P50281; HT1080 RFP-PRO-GFP cells, GFP/RFP ratio fluorescence, overnight; percent of plate control window, DMSO zero; GFP/RFP ratio change, % at 20 µM; 360,000 compounds, 0.061% hits; AID 651647;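 active = GFP/RFP ratio change of at least 30% with cell ATP level not reduced by more than half and red fluorescence within 50% of control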; also: strong numbers were not always called active
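Assay system: HT1080 RFP-PRO-GFP cells. Benchmarks: DMSO vehicle wells and RFP-L50D-GFP reporter cell wells. Times: overnight cell settling, then overnight compound exposure, 37 °C, 5% CO2. Compound: 20 µM single dose, 1% DMSO. Read-out basis: GFP/RFP fluorescence ratio.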
eIF4H FP inh retest: second read-out of eIF4H FP inh, no call of its own (marks repeat the call); inhibition, %; compound at 20 µM; confirmation average;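 mean of two retest wells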
PABP polyA inh retest: recorded beside PABP polyA inh, whose call it bears; inhibition, %; compound at 20 µM; confirmation repeats;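 mean of two retest wells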
MT1-MMP act inh RFP: further read-out of MT1-MMP act inh, marked with its call; RFP signal change, %; measured here: RFP expression control read;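 0 = vehicle wells; hits needed this value within 50% of zero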
Starred values were filed as active, the others as inactive; i = inactive; ? = inconclusive; / = no result given; & = joins results of further samples; [ ] = another dose, or the depositor's remark. This is a subset, so the mix of outcomes need not match the whole.

SMILES | Rce1 inhib | HIV Env fusion | eIF4H FP inh | CSC inhib | PABP polyA inh | UUG fidelity | MT1-MMP act inh | MT1-MMP act inh RFP | others
Cc1c(NC(=O)c2ccc3ncccc3c2)c(=O)n(-c2ccccc2)n1C | i | -14 | -11 | -19 | -2 | -5 | 0 | -1
CC1CCC(NC(=O)CCS(=O)(=O)c2ccc3c(c2)CCN3C(=O)C2CC2)CC1 (configuration not stated) | i | 2 | -4 | -8 | -8 | 4 | -8 | -2
CCOC(=O)N1CCC(NC(=O)CS(=O)(=O)Cc2nc(-c3ccc(OC)cc3)oc2C)CC1 | i | -1 | 2 | 17 | -7 | -6 | 1 | -6
Cc1cc(C)cc(N(CCC#N)C(=O)COC(=O)Cn2[nH]c(=O)c3ccccc3c2=O)c1 | / | 13 | / | -2 | / | 17 | 4 | 3
Cc1ccc(Nc2ccc([N+](=O)[O-])nc2[N+](=O)[O-])cc1 | i | -12 | 0 | -8 | 8 | -26 | 7 | 0
Cc1cc(C)cc(NC(=O)CSc2ncc(S(=O)(=O)c3ccccc3)c(=O)[nH]2)c1 | i | -13 | -1 | -13 | 1 | / | / | /
Cc1cc(-c2n[nH]c(=S)n2-c2ccccc2)nn1C | i | -5 | 11 | -1 | 0 | / | -5 | 6
Cc1ccc2nc(SC(C(=O)c3ccccc3)c3ccccc3)nc(C)c2c1 (configuration not stated) | i | -22 | 6 | 17 | -2 | -8 | 10 | 3
COc1ccc(Cn2c(-c3ccc(OC)cc3)nc3c(c(=O)c4ccccc4n3C)c2=O)cc1 | i | / | 5 | 5 | 7 | / | / | /
Nc1ccc(C(=O)c2cccs2)cc1 | i | -13 | 2 | -5 | -5 | / | -1 | 3
O=C(CSCc1ccc(Cl)cc1)Nc1cc([N+](=O)[O-])ccc1O | i | 8 | -1 | 38 | -2 | / | 6 | -25
CCCCN1C(=O)C(O)=C(C(C)=O)C1c1ccccc1 (configuration not stated) | i | / | -6 | / | 14 | -19 | 4 | 4
CN1C(=O)CSc2ccc(NC(=O)N3CCOCC3)cc21 | i | / | 2 | 5 | -1 | 1 | 3 | 0
O=C1C(Cl)=C(N2CCCCC2)C(=O)C(Cl)=C1c1cnc(N2CCCCC2)s1 | i | / | ? | / | -8 | -9 | 9 | 16
O=C(NCCCn1ccnc1)c1ccc(F)cc1 | i | -3 | 4 | -6 | 6 | -4 | 0 | 4
CCCCN(CCCNC(=O)c1ccc2c(c1)NC(=O)CN2C)c1ccccc1 | / | 3 | / | / | / | -9 | -16 | -33
CC1CCCCC1NC(=O)CN1C(=O)NC(Cc2ccccc2)(Cc2ccccc2)C1=O (configuration not stated) | i | 22 | -7 | -13 | 4 | 14 | -4 | -11
CCN(CC)C(=O)CSC1=Nc2ccccc2C2=NC(Cc3c[nH]c4ccccc34)C(=O)N12 (configuration not stated) | i | -76 | 10 | 0 | -7 | -25 | -6 | 4
C[C@H](CO)N1C[C@H](C)[C@@H](CN(C)CC2CC2)Oc2c(NC(=O)C3CC3)cccc2C1=O | / | 44 | / | / | / | 22&-5 | 4 | 1
COc1ccc(S(=O)(=O)Nc2ccccc2C(=O)N2CCOCC2)cc1C | i | 12 | -4 | 11 | -4 | -8 | -6 | -3
C[C@H](CO)N1C[C@H](C)[C@@H](CN(C)C(=O)NC2CCCCC2)Oc2c(NC(=O)Nc3ccc(C(F)(F)F)cc3)cccc2C1=O | / | 8[16.7 µM] | / | / | / | 6&-16 | 5 | -6
CC(C)c1nc2oc3c(N(C)CCO)ncnc3c2c2c1CCC2 | i | 8 | -11 | -5 | -10 | 10 | -4 | -5
CCCOC(=O)NC1CCS(=O)(=O)C1 (configuration not stated) | i | -23 | -9 | 4 | -13 | -27 | 3 | 9
Cc1ccc(C(C)C)cc1S(=O)(=O)NCc1cccnc1 | i | / | 4 | 7 | -6 | -21 | -2 | -1
CCCCCCNC(=O)CNC(=S)N(Cc1cccs1)C1CCCCC1 | i | 59* | -7 | 39 | -7 | -6 | / | /

Entries from the list above that have four or more nitrogen atoms:
SMILES | Rce1 inhib | HIV Env fusion | eIF4H FP inh | CSC inhib | PABP polyA inh | UUG fidelity | MT1-MMP act inh | MT1-MMP act inh RFP | others
Cc1c(NC(=O)c2ccc3ncccc3c2)c(=O)n(-c2ccccc2)n1C | i | -14 | -11 | -19 | -2 | -5 | 0 | -1
Cc1cc(C)cc(N(CCC#N)C(=O)COC(=O)Cn2[nH]c(=O)c3ccccc3c2=O)c1 | / | 13 | / | -2 | / | 17 | 4 | 3
Cc1ccc(Nc2ccc([N+](=O)[O-])nc2[N+](=O)[O-])cc1 | i | -12 | 0 | -8 | 8 | -26 | 7 | 0
Cc1cc(-c2n[nH]c(=S)n2-c2ccccc2)nn1C | i | -5 | 11 | -1 | 0 | / | -5 | 6
CCCCN(CCCNC(=O)c1ccc2c(c1)NC(=O)CN2C)c1ccccc1 | / | 3 | / | / | / | -9 | -16 | -33
CCN(CC)C(=O)CSC1=Nc2ccccc2C2=NC(Cc3c[nH]c4ccccc34)C(=O)N12 (configuration not stated) | i | -76 | 10 | 0 | -7 | -25 | -6 | 4
C[C@H](CO)N1C[C@H](C)[C@@H](CN(C)C(=O)NC2CCCCC2)Oc2c(NC(=O)Nc3ccc(C(F)(F)F)cc3)cccc2C1=O | / | 8[16.7 µM] | / | / | / | 6&-16 | 5 | -6
CC(C)c1nc2oc3c(N(C)CCO)ncnc3c2c2c1CCC2 | i | 8 | -11 | -5 | -10 | 10 | -4 | -5

Additional results follow:
SMILES | Rce1 inhib | HIV Env fusion | eIF4H FP inh | CSC inhib | PABP polyA inh | UUG fidelity | MT1-MMP act inh | MT1-MMP act inh RFP | others
Cc1ccc(N(CC(=O)NCC(O)c2ccccc2)S(=O)(=O)c2ccc(C)cc2)cc1 (configuration not stated) | / | -2 | 10 | -1 | 9 | -17 | 1 | 3
CCn1c2ccccc2c2nn(C)c(=N)nc21 | i | -24 | 2 | -12 | -1 | -16 | -9 | 1
O=c1nc2scc(-c3ccccc3)n2c2ccccc12 | i | / | -11 | 1 | 3 | -11 | / | /
CCOc1ccc(N/C=C/C(=O)c2ccc3ccccc3c2)c([N+](=O)[O-])c1 | i | / | 2 | -22 | -7 | -20 | 5 | 2
COc1cccc(CN(C)CC(=O)NC(=O)NCc2ccco2)c1 | i | -8 | 50* | -16 | 30* | 0 | 4 | 8 | eIF4H FP inh retest=64*;PABP polyA inh retest=64*
Cc1ccc([C@@H]2CC=C(C(=O)O)[C@H](c3ccc(C(C)(C)C)cc3)N2S(=O)(=O)c2ccc(C)cc2)cc1 | / | -12 | / | / | / | -8 | -5 | -6
CC(=O)NCCn1c(SCC(=O)NCc2ccco2)nc2ccccc2c1=O | i | -67 | -1 | -12 | -15 | -9 | 4 | 1
O=C(N=C1SC2CS(=O)(=O)CC2N1c1ccc(OC(F)(F)F)cc1)C1CC1 (configuration not stated) | i | 16 | -20 | -15 | -5 | -10 | 0 | 2
Cc1cccc(C2Nc3ccccc3C(=O)N2CCc2ccccc2)n1 (configuration not stated) | i | / | -12 | -8 | -15 | -23 | -5 | -6
CC(C)NC(=O)c1ccc(CNC(=O)OCC(F)(F)F)cc1 | i | -34 | -5 | 13 | 4 | -13 | -1 | 1
CC1CCN(Cc2c(C(=O)N3CCc4ccccc4C3)nc3ccc(Cl)cn23)CC1 | i | 5 | 4 | -7 | 3 | 0 | -3 | -1
O=C(CCNC(=O)c1ccc(Cl)cc1)Nc1ccccc1N1CCCC1 | i | 10 | / | / | / | -11 | 1 | 3
COc1ccc(OCC(=O)N2CCN(C(=O)COc3ccccc3)CC2)cc1 | i | 8 | 2 | 2 | 2 | -1 | -5 | -3
Cc1ccnc2nc(C(=O)OCC(=O)c3c[nH]c4ccccc34)nn12 | / | -4 | -7 | 7 | -16 | -14 | -4 | 7
COc1ccc(-c2noc(COc3ccc(Cl)c(C)c3)n2)cc1 | i | 23 | -6 | -5 | -16 | -3 | -2 | 2
CCOc1cc(C=C2C(=O)c3ccccc3C2=O)ccc1OCC(=O)Nc1ccc(C)cc1 | i | -5 | 1 | 1 | 4 | / | -5 | -2
CC1CCCCN1C(=O)c1cccc(NC2=C(Cl)C(=O)N(Cc3ccccc3)C2=O)c1 (configuration not stated) | / | / | / | 4 | / | -15 | -4 | -8
CC(=O)c1ccc(NC(=O)C(C)Sc2nnc(-c3ccncc3)n2C2CC2)cc1 (configuration not stated) | / | 19 | / | 12 | / | 1 | -1 | -5
CSCC(=O)NS(=O)(=O)c1ccc(C)cc1 | i | 1 | -1 | -6 | -2 | 1 | -1 | 1
COc1ccc(NC(=O)C2Cc3c(-c4ccccc4Oc4ccccc4)ccnc3O2)cn1 (configuration not stated) | / | 25 | / | / | / | -27 | -7 | -21
COC(=O)c1c(NC(=O)CN2C(=O)NC3(CCC(C(C)(C)C)CC3)C2=O)sc2c1CCCCC2 (configuration not stated) | i | 3 | -7 | 11 | -11 | / | -4 | -3
CC1CCCC(C)N1C(=O)CSc1nnc(-c2c[nH]c3ccccc23)o1 (configuration not stated) | i | / | -7 | / | 15 | -11 | -6 | -7
Cc1ccc(-c2cc(C(F)(F)F)n3ncc(C(=O)N4CCCCC4c4cccnc4)c3n2)cc1 (configuration not stated) | i | -16 | 2 | 6 | 20 | -14 | -16 | -16
COc1ccc(N2CCN(CC(O)COc3cc(C)cc(C)c3)CC2)cc1 (configuration not stated) | i | 2 | 1 | 8 | 2 | -18 | 2 | 3
Cc1ccc(S(=O)(=O)N[C@@H](CC(C)C)C(=O)N2CCC(C(=O)N[C@H](C(=O)O)C(C)C)CC2)cc1 | / | / | 6 | -12 | 4 | -6 | -2 | 2
(continued)
SMILES | Rce1 inhib | HIV Env fusion | eIF4H FP inh | CSC inhib | PABP polyA inh | UUG fidelity | MT1-MMP act inh | MT1-MMP act inh RFP | others
O=C(OCCOc1cccc(Cl)c1)c1ccc(F)c(S(=O)(=O)N2CCOCC2)c1 | / | 12 | / | 5 | / | -9 | 3 | 1
O=C(Nc1ccnn1C1CCN(Cc2ccccc2)CC1)C1CCOC1 (configuration not stated) | / | -6 | 4 | -7 | -6 | -21 | -1 | 0
CCC(Sc1nc2ccsc2c(=O)n1Cc1ccc(C(=O)O)cc1)C(=O)Nc1ccc(Cl)cc1 (configuration not stated) | / | 22 | / | / | / | -13 | 11 | -6
CCOC(=O)c1cc2n(c1N)-c1ccccc1C2=O | i | -84 | 6 | -6 | 21 | -1 | -44 | 2
CN(CC(=O)Nc1ccccc1Cl)C(=O)c1cccc(S(=O)(=O)N2CCN(Cc3ccccc3)CC2)c1 | i | 12 | / | -1 | / | 3 | 4 | -26
CC(=O)O[C@H]1CC(C)(C)C(=C=C/C(C)=C/C=C/C(C)=C/C=C/C=C(C)/C=C/C=C(\C)C(=O)C[C@@]23O[C@]2(C)C[C@@H](O)CC3(C)C)[C@](C)(O)C1 | i | / | -7 | 17 | 16 | / | / | /
CCCOc1cccc(C(=O)NC(=S)Nc2ccccc2)c1 | i | -25 | 3 | 0 | 10 | -17 | 1 | 4
CCOc1ccccc1C(=O)Nc1cccc2cccnc12 | i | -27 | 5 | 25 | -3 | -19 | -3 | -3
